# RE007 growth inh: less growth of the S. pombe RE007 Vpr strain. S. pombe RE007 Vpr strain, BacTiter-Glo ATP luminescence, 24 h; control for the full effect not named in the record. Potency, µM (highest dose often 92.2 µM), for the others: at the highest dose activity change, negative = less growth. 0.21% of 360,000 active. AID 651644; active = well fitted falling curve with a large enough effect; inconclusive = small, poorly fitted or top-dose-only effect; inactive = no such curve, though single readings can be large or run the other way;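 note: % is set by controls: 0 for no effect and ±100 for the full control effect; nearly all actives have a fitted effect of over 50% in size; the assay follows cell death caused by Vpr and the record does not say whether a fall means rescue or toxicity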
#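 Fission yeast strain RE007, carrying one chromosomally integrated HIV-1 vpr copy, was seeded at OD 0.01 in PMG+AL medium with 23 nL pinned compound. After 24 h at 30 °C and 99% humidity, viability was read by BacTiter-Glo luminescence.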
# Marburg entry inh: Marburg virus entry inhibition | Marburg virus pseudotyped entry inhibition, cell reporter; control for the full effect not named in the record; about a third of the inactives were read at about 46 µM | 1.8% of 300,000 active | Potency, µM (doses to about 37.8 µM), for the others: at the top dose activity change, negative = inhibition, actives largely listed as inhibitors | AID 540276; active = well fitted inhibition curve with a large enough effect; inconclusive = small, poorly fitted or top-dose-only effect, or effect the other way; inactive = flat fitted curve, though single readings scatter; tested in HEK293 cells; about a fifth of its hits are not listed in these tables; note: % is set by controls: 0 for no effect and ±100 for the full control effect; luciferase read-out
# Lassa entry inh: blocks Lassa virus binding to or entry into cells. Potency, µM (titrated, usually from 37.9 µM), without a hit: at the highest dose activity change, negative = inhibition, actives largely listed as inhibitors. 1.2% of 300,000 active. Lassa virus pseudotype entry inhibition, cell reporter; control for the full effect not named in the record; active means well fitted inhibition curve with a large enough effect; inconclusive means small, poorly fitted or top-dose-only effect, or effect the other way; inactive means flat fitted curve, though single readings scatter; tested in HEK293 cells; note: % is set by controls: 0 for no effect and ±100 for the full control effect; nearly all actives have a fitted effect of over 50% in size; luciferase read-out
# Cruzain inh noDet: inhibitors of Trypanosoma cruzi cruzain without detergent. P25779. purified cruzain, Z-FR-AMC fluorescence, no detergent. Potency, µM, inactives show max response, negative = inhibition, most hits filed as inhibitors. 2.3% of 200,000 active;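 note: plate controls were enzyme without inhibitor for no effect and buffer without enzyme for full effect; nearly all actives have a fitted effect of over 40% in size; top concentration of the series not given in the record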
# Target sequence (P25779 123-467 limits assumed): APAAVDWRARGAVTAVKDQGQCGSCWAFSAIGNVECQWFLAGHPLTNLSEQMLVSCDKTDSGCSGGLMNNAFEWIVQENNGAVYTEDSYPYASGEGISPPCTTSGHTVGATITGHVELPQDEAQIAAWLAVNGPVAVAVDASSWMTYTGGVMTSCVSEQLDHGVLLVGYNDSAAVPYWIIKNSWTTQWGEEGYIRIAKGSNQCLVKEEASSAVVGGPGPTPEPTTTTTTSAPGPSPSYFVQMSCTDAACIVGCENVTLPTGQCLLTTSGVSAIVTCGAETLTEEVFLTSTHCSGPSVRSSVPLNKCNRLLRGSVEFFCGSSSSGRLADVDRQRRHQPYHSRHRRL
#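 Purified cruzain at 1.5 nM, pre-incubated 15 min with compound at room temperature in 100 mM sodium acetate pH 5.5, 5 mM DTT, 0.00005% Triton X-100. Reaction started with 2 uM Z-FR-AMC; AMC fluorescence increase over 60 s gives rate.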
# Cruzain Triton: inhibitors of Trypanosoma cruzi cruzain with detergent. purified cruzain, Z-FR-AMC fluorescence, 0.01% Triton. Potency, µM, inactives show max response, negative = inhibition, actives largely listed as inhibitors. 0.43% of 200,000 active;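 note: plate controls were neutral wells for no effect and buffer without enzyme for full effect; nearly all actives have a fitted effect of over 40% in size; top concentration of the series not given in the record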
#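 Enzyme 1.5 nM, Z-FR-AMC 2 uM, NaOAc 100 mM pH 5.5, DTT 5 mM, Triton X-100 0.01%; 15 min RT compound preincubation; kinetic ex360/em450, 60 s delta.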
# 2A StopGo: FMDV 2A StopGo reporter, luciferase signal | human cells with a luciferase reporter of 2A StopGo recoding; control for the full effect not named in the record | Potency, µM (highest dose often 57.9 µM), for inactives: at the top dose signal change, negative = less light | 1.2% of 410,000 active; active = well fitted falling curve with a large enough effect; inconclusive = small, poorly fitted or top-dose-only effect; inactive = no such curve, though single readings can be large or run the other way; tested in HEK293T cells; note: % is set by controls: 0 for no effect and ±100 for the full control effect; nearly all actives have a fitted effect of over 45% in size; luciferase light after 4 h
# NS1 function inh: blocks influenza NS1 protein function; S. cerevisiae slowed by influenza A NS1, growth recovery by OD600; Potency, µM (titrated, usually from 46.1 µM), for inactives: top-dose activity, positive = more growth; 0.4% of 270,000 active; AID 2326; active means well fitted rising curve with a large enough effect; inconclusive means small, poorly fitted or top-dose-only effect; inactive means no such curve, though single readings can be large or run the other way; note: nearly all actives have a fitted effect of over 50% in size
#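 OD600 was taken as the measure of yeast growth restored by compound in an NS1-expressing S. cerevisiae strain. Cells had been washed out of glucose medium and diluted 1:100 into galactose -URA medium, pH 6.0.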
# SARS PLP yeast: inhibitors of SARS-CoV papain-like protease in yeast. 0.19% of 330,000 active. Potency, µM (doses to about 32.9 µM), without a hit: at the top dose activity, positive = growth rescue. S. cerevisiae expressing SARS-CoV PLpro, growth rescue; control for the full effect not named in the record. AID 485353; active means well fitted rising curve with a large enough effect; inconclusive means small, poorly fitted or top-dose-only effect; inactive means no such curve, though single readings can be large or run the other way; note: 0% is about no effect; nearly all actives have a fitted effect of over 55% in size; growth read by luminescence after 48 h
# Numbers without * were called inactive; ? = inconclusive; . = no result given; [ ] = remark or other dose. Unless noted, calls come from the whole dose curve; as a rule, active = well fitted curve in the direction sought with a large enough effect; inconclusive = small, poorly fitted or top-dose-only effect, or another doubt; inactive = no such curve, though single readings can be large; an effect the other way counts as inactive or inconclusive. Potency is the fitted concentration of half-maximal effect.
SMILES,RE007 growth inh,Marburg entry inh,Lassa entry inh,Cruzain inh noDet,Cruzain Triton,2A StopGo,NS1 function inh,SARS PLP yeast
Nc1cc(=O)nc(SCc2ccccc2)n1Cc1ccco1,1%,-13%,1%,-10%,-11%,5%,0%,1%
CC1=C(C(=O)Nc2ccccc2)C(c2ccc(C)cc2)n2nc(SCc3ccccc3C)nc2N1 (configuration not stated),.,1%[46.1 µM],22%[46.1 µM],-8%,-0.1%,-3%,.,.
Cc1cc2c(cc1S(=O)(=O)Nc1cccc(F)c1)n(C)c(=O)c(=O)n2C,6%,.,.,.,.,26%,12%,0%
c1ccc2nc3ccccc3nc2c1,-25%,-6%,0%,-20%,-2.2%,22%,-6%,-23%
Cn1nccc1C(=O)NCc1ccc2c(c1)CCN2C(=O)c1ccc(F)cc1,.,.,?,-5%,2.2%,-14%,.,.
COc1cc2nc(SCC(=O)Nc3ccc(F)cc3)n3nc(CCn4c(C)nc5ccccc54)nc3c2cc1OC,.,?,2%[46.1 µM],16%,-4.1%,-9%,.,.
CCOC(=O)c1[nH]c(C)c(C(=O)Nc2ccc(Cl)cc2)c1C,4%,2%,-7%,?,-1.2%,6%,3%,-3%
Cc1ccc(O)c(C(CC(=O)NCc2ccco2)c2ccccc2)c1 (configuration not stated),8%,12%[46.1 µM],-8%[46.1 µM],.,.,-18%,3%,1%
O=C(CCCOc1ccc(Cl)cc1Cl)N/N=C/c1ccco1,-2%,-17%[46.1 µM],3%,.,.,-7%,.,-10%
CC1CCCN(Cc2c(O)ccc3c(=O)c(-c4ccccc4Cl)c(C(F)(F)F)oc23)C1 (configuration not stated),.,?,-23%[46.1 µM],1%,-0.5%,-24%,.,.
Cc1cccc(C)c1NC(=O)CN(C)C(=O)c1cc(S(=O)(=O)N2CCOCC2)ccc1N1CCCC1,1%,17%,6%,.,.,-12%,.,0%
Cc1ccc(NS(=O)(=O)c2csc(C(N)=O)c2)cc1C,-2%,?,-26%,.,.,44%[activator],-2%,1%
CCOC(=O)N1CCC(NC(=O)c2cn(-c3ccc(OC)cc3)c(=O)c3ccccc23)CC1,8%,?,?,?,-0.1%,-16%,-15%,2%
CC1CCC(Nc2nc3c(-c4cccc(C(F)(F)F)c4)nnn3c3ccccc23)CC1 (configuration not stated),.,3%[46.1 µM],26%[46.1 µM],16%,-0.5%,0%,.,.
CCN(CC)CCNC(=O)c1ccc(NC(=O)Cc2ccccc2F)cc1,2%,?,1%,.,.,6%,0%,-5%
COc1ccccc1C1CC(c2cccs2)=Nc2ccccc2S1 (configuration not stated),-16%,-13%[46.1 µM],?,?,2.4%,14%,-15%,-4%
CCOC(=O)C1(C)/C(=N/Nc2ccc(Cl)cc2)C(=O)C(=O)N1c1ccccc1 (configuration not stated),6%,4%,8%,6%,-3.0%,0%,-50%,-6%
COc1ccccc1-c1nn(Cc2ccccc2)cc1C(=O)N1CCN(c2ncccn2)CC1,-16%,?,?,.,.,-7%,.,-14%
Cc1cccc(N2CC3=C(C2=O)C(c2ccccc2)NC(=O)N3C)c1 (configuration not stated),3%,14%,-3%,-12%,-5.1%,-5%,-1%,4%
NC(=O)C1CC(=O)N(Cc2ccc3c(c2)OCO3)C(=Nc2ccccc2)S1 (configuration not stated),-2%,12%,0%,?,-7.9%,.,-18%,-3%
CC1(C)CC(=O)C2=C(C1)OC(N)=C(C#N)C21C(=O)N(CN2CCOCC2)c2ccccc21 (configuration not stated),-6%,?,-8%,1%,5.9%,5%,3%,-3%
Cc1ccc([N+](=O)[O-])cc1NC(=O)CN1CCC(C)CC1,-2%,4%,5%,-5%,-1.0%,-29%,15%,2%
CCOc1ccc(NC(=O)CN2CCN(C(=O)c3ccco3)CC2)cc1S(=O)(=O)N1CCCC1,-2%,?,-9%,.,.,9%,.,1%
CC(=O)Nc1cccc(NC(=O)COc2ccccc2C)c1,4%,-3%[46.1 µM],18%[46.1 µM],.,.,12%,-4%,0%
CCCOc1cccc(C2c3c(oc4cc(C)c(C)cc4c3=O)C(=O)N2CCCN2CCOCC2)c1 (configuration not stated),.,?,-17%[46.1 µM],-1%,-4.1%,9%,.,.
CCN(Cc1ccccc1)C(c1ccncc1)c1nnnn1C(C)(C)C (configuration not stated),6%,-19%,-47%,11%,2.8%,-23%,-18%,-33%
COc1cc(OC)c(N(C)C(=O)c2c(C)oc3ncn(CC(C)C)c(=O)c23)cc1Cl,.,.,14%[46.1 µM],10%,-1.2%,-13%,.,.
N/C(=N\OC(=O)CCCN1C(=O)c2ccccc2C1=O)c1ccc(Cl)cc1,29%,15%,0%,1%,-2.2%,-4%,4%,-1%
COc1ccc(-c2ccc(=O)n(CC(=O)NCC3COCCO3)n2)cc1 (configuration not stated),13%,-14%[46.1 µM],15%,.,.,-14%,.,1%
Cc1ccc(C(O)(C(=O)NN(C(=O)c2ccccc2)c2ccccc2)c2ccc(C)cc2)cc1,33%,?,-6%,25%,-0.2%,8%,1%,3%
Cc1ccc(C)c(Cn2c(=O)n(CCCC(=O)NCc3ccc4c(c3)OCO4)c(=O)c3sccc32)c1,.,?,-18%[46.1 µM],-27%,-3.5%,-23%,.,.
Cn1nnc(NC(=S)NC(=O)c2cccc3ccccc23)n1,-3%,24%[46.1 µM],0%,.,.,-25%,-50%,7%
CCc1ccccc1-n1c(SCC(=O)NC)nnc1-c1ccco1,6%,.,.,.,.,-3%,17%,-3%
CCCCNC(=O)C1CCN(c2nc3ccc(C)cc3[nH]2)CC1,.,.,15%[46.1 µM],-14%,-1.4%,20%,.,.
Cc1ccc(-c2nc(N)n(C(=O)c3cccs3)n2)cc1,-13%,21%,8%,.,.,5%,.,4%
Cc1ccccc1N1CCN(C(=O)c2cccnc2)CC1,4%,4%[46.1 µM],-7%[46.1 µM],.,.,-3%,.,.
O=C(Cn1c(-c2ccccc2)c[n+]2ccsc12)c1ccccc1,-23%,.,.,.,.,50%[activator],-2%,-1%
CCc1nnc(NS(=O)(=O)c2ccc(NC(=S)NC(=O)c3ccccc3)cc2)s1,-9%,?,1%,-2%,-12%,20%,24%,-12%
Cc1nn(C)c(C)c1/C=C(/C(=O)C(C)C)n1cncn1,4%,.,.,.,.,-21%,0%,-1%
O=C1C(=O)N(Cc2cccnc2)C(c2cccc(F)c2)/C1=C(/O)c1ccc2c(c1)OCO2 (configuration not stated),22%,.,.,.,.,-19%,33%,5%
CCCn1c(SCC(=O)NCc2ccccc2)n[nH]c1=O,-17%,0%,-4%,.,.,-5%,.,5%
CN1C(=O)c2ccccc2Sc2ccc(NC(=O)c3ccc(C#N)cc3)cc21,.,.,?,0%,-3.0%,-17%,.,.
COc1cccc(C(=O)C2CCCN(Cc3cnn(C(C)C)c3)C2)c1 (configuration not stated),?,-19%[46.1 µM],-7%,.,.,-14%,2%,1%
Cc1ccc(-c2noc(CCC(=O)N3CCN(c4cccc(C(F)(F)F)c4)CC3)n2)cc1,-8%,?,?,?,-2.5%,?,4%,-2%
FC(F)(F)c1cc(C(F)(F)F)c2ccc(N/N=C/c3cccc(Cl)c3)nc2n1,.,.,.,7%,0.3%,.,9%,3%
CN(C)c1cc(NC(=O)CNC(C)(C)C)c2ccccc2n1,4%,.,.,.,.,-28%,1%,1%
COc1ccc(NC(=O)c2c(NCc3ccc(N(C)C)cc3)sc3c2CCC3)cc1,.,.,?,-12%,-5.6%,11%,.,.
COc1ccc(C(=O)O/N=C(/C(N)=O)P(=O)(OC(C)C)OC(C)C)cc1,1%,22%[14.2 µM],-17%,.,.,0%,-1%,1%
c1ccc(CCn2cnc3ccccc32)cc1,-4%,2%[46.1 µM],4%[46.1 µM],.,.,17%,.,2%
Cc1cc(C)c2c3c(oc2n1)C(=O)N(c1cccc(Cl)c1)CC(=O)N3,7%,14%[46.1 µM],1%,.,.,4%,1%,-3%
# (listing goes on)
SMILES,RE007 growth inh,Marburg entry inh,Lassa entry inh,Cruzain inh noDet,Cruzain Triton,2A StopGo,NS1 function inh,SARS PLP yeast
OCC1(Cc2ccccc2F)CCCN(CCc2ccccc2)C1 (configuration not stated),-8%,?,-25%[46.1 µM],.,.,-4%,3%,-4%
COc1cccc(/C=N\NC(=O)Cn2nnc3ccccc32)c1O,13%,?,?,.,.,36%[activator],3%,0%
O=C(NNS(=O)(=O)c1ccccc1[N+](=O)[O-])c1ccccc1Cl,-3%,.,.,.,.,21%,-1%,-2%
CCc1ccc(S(=O)(=O)Nc2ccc(Br)cn2)cc1,5%,3%[46.1 µM],0%[46.1 µM],.,.,37%[activator],-28%,-9%
Cc1[nH]c(=O)[nH]c(=O)c1NC(=O)CSc1ncccc1-c1nc2ccccc2[nH]1,8%,1%,-22%,4%,-0.5%,10%,5%,-3%
O=c1cc(CSc2nnc3ccccn23)c2c(ccc3ccccc32)o1,3%,?,12%,-28%,-3.9%,-14%,-38%,-6%
Cc1ccc(/C=C(\NC(=O)c2ccccc2)C(=O)NCC2CCCO2)o1 (configuration not stated),2%,.,.,.,.,7%,-2%,0%
O=C1OC(c2ccc3c(c2)OCO3)N(C(=O)c2ccc(Cl)c(Cl)c2)c2ccccc21 (configuration not stated),-4%,?,-10%,32µM*,-1.5%,-3%,-59%,-25%
Cc1cc(C(=O)CS(=O)(=O)c2ccc(F)cc2)cc(C)c1OC(=O)N(C)C,0%,?,?,.,.,0%,.,4%
CC(=O)N(C)c1ccc(OCC(O)CN(c2ccccc2C)S(=O)(=O)c2ccc(C)cc2)cc1 (configuration not stated),12%,-2%,2%,.,.,-27%,-19%,4%
Cc1ccc(Cl)cc1N1CCN(C(=O)C2CCN(c3nnc(-n4cccc4)s3)CC2)CC1,-4%,.,.,-3%,0.0%,?,-64%,-17%

# Structural class, the entries above containing a tert-butyl group.
SMILES,RE007 growth inh,Marburg entry inh,Lassa entry inh,Cruzain inh noDet,Cruzain Triton,2A StopGo,NS1 function inh,SARS PLP yeast
CCN(Cc1ccccc1)C(c1ccncc1)c1nnnn1C(C)(C)C (configuration not stated),6%,-19%,-47%,11%,2.8%,-23%,-18%,-33%
CN(C)c1cc(NC(=O)CNC(C)(C)C)c2ccccc2n1,4%,.,.,.,.,-28%,1%,1%

# Bioassay records (PubChem)
